Vaccinia stage – blocks a specific stage of Vaccinia orthopoxvirus infection; Vaccinia-infected cells, mCherry/Venus stage reporter fluorescence; active compounds read low; some inactives read as strong as hits; activity change (mCherry), % (no concentration beside the values); hit rate 0.01% among 89,000;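 active = mCherry past -33% and 40 or more points under the early reporter, replicates agreeing; inconclusive = past -33% without that gap or agreement; tested in A549 cells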;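 also: scaled between vehicle wells and reference inhibitor wells; 23 nL library stock went into each well; one replicate is shown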
Vaccinia stage Venus – second read-out of Vaccinia stage, no call of its own (marks repeat the call); activity change (Venus), %; measured here: Venus reporter, other viral stage;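 negative = less Venus signal; first of two replicates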
Active calls of the source: *; ? = inconclusive; nt = no result given. Some of the compounds tested; the hit share may differ from the screen's.

nr	smiles	Vaccinia stage	Vaccinia stage Venus
1	C[C@@H]1CCCCO[C@H](CN(C)C(=O)C2CCCCC2)[C@H](C)CN([C@H](C)CO)C(=O)c2cc(NC(=O)Nc3ccccc3)ccc2O1	-3	-11
2	C[C@@H]1CCCCO[C@@H](CN(C)Cc2ccncc2)[C@@H](C)CN([C@H](C)CO)C(=O)c2cc(NS(=O)(=O)c3ccc(Cl)cc3)ccc2O1	16	8
3	C[C@H]1CN([C@@H](C)CO)C(=O)c2cc(/C=C/c3ccccc3)cnc2O[C@H]1CN(C)S(=O)(=O)c1ccccc1	-22	-24
4	O=C(NCC[C@H]1CC[C@H](NS(=O)(=O)c2ccc(F)cc2)[C@H](CO)O1)Nc1ccc(Cl)cc1	-2	-8
5	COc1ccc(S(=O)(=O)N(C)C[C@H]2Oc3ccc(NC(=O)Nc4cccc5ccccc45)cc3CC(=O)N([C@@H](C)CO)C[C@@H]2C)cc1	11	9
6	Cc1ccccc1-c1ccc(C2[C@@H]3CN(S(=O)(=O)c4ccccc4C)C[C@H]2N3)cc1 (stereo partly specified)	?	15
7	COc1ccc(-c2cn(CC[C@H]3CC[C@@H](NC(=O)Nc4ccc(F)cc4)[C@@H](CO)O3)nn2)cc1	18	7
8	Cc1noc(C)c1NC(=O)N(C)C[C@@H]1OCc2ccccc2-c2ccccc2C(=O)N([C@@H](C)CO)C[C@H]1C	16	9
9	C[C@H]1CCCCO[C@H](CN(C)C(=O)Nc2ccc3c(c2)OCO3)[C@@H](C)CN([C@@H](C)CO)C(=O)c2cc(NC(=O)CCC(F)(F)F)ccc2O1	-8	7
10	N#C[C@H]1[C@@H](c2ccccc2-c2ccccc2F)[C@@H](CO)N1C(=O)C1CC1	6	-4
11	C[C@H](CO)N1C[C@H](C)[C@@H](CN(C)S(=O)(=O)c2ccc(Cl)cc2)OCCCC[C@H](C)Oc2ccc(NC(=O)CCC(F)(F)F)cc2C1=O	-24	-17
12	Cc1noc(C)c1NC(=O)Nc1ccc2c(c1)C(=O)N([C@H](C)CO)C[C@@H](C)[C@H](CN(C)S(C)(=O)=O)OCCCC[C@@H](C)O2	9	9
13	CCO[C@H]1OC(C(=O)NCc2nc3ccccc3[nH]2)=C[C@@H](c2coc3ccccc3c2=O)[C@@H]1CCCO	-3	5
14	COc1ccc(CN(C)C[C@@H]2OCCCC[C@@H](C)Oc3ccc(N(C)C)cc3C(=O)N([C@H](C)CO)C[C@@H]2C)cc1	2	1
15	C[C@H](CO)N1C[C@H](C)[C@@H](CN(C)Cc2ccncc2)Oc2cc(-c3cncnc3)ccc2S1(=O)=O	16	12
16	Cc1ccc(S(=O)(=O)Nc2ccc3c(c2)C(=O)N([C@@H](C)CO)C[C@H](C)[C@H](CN(C)C(=O)Nc2ccccc2)OCCCC[C@H](C)O3)cc1	-29	-17
17	COc1ccc(NC(=O)Nc2ccc3c(c2)C(=O)N([C@H](C)CO)C[C@H](C)[C@@H](CN(C)C(=O)Nc2ccc(OC)cc2)OCCCC[C@H](C)O3)cc1	22	12
18	C[C@@H]1CN([C@H](C)CO)C(=O)c2cccc(NC(=O)CCCCCC(=O)Nc3ccccc3N)c2O[C@H]1CN(C)S(=O)(=O)c1cccs1	-2	-7
19	CCC(=O)N1CC(=O)N2[C@@H](CO)[C@H](c3ccc(C#CCC(C)C)cc3)[C@@H]2C1	-6	-1
20	CCC(=O)N1CC[C@H]2[C@@H]1c1cc(C#Cc3ccccc3OC)ccc1N(C)[C@H]2CO	4	4
21	CO[C@@H]1CN(C)C(=O)c2ccc(NC(C)=O)cc2OC[C@@H](C)N(C(=O)C2CC2)C[C@H]1C	6	14
22	CCC(=O)N(C)C[C@H]1Oc2cc(C#C[C@H](C)O)ccc2S(=O)(=O)N([C@H](C)CO)C[C@H]1C	4	7
23	CC(C)NC(=O)N1CCCCN2[C@H](CO)[C@@H](c3ccc(C#Cc4ccccc4F)cc3)[C@H]2C1	?	nt
24	CCCC(=O)Nc1ccc2c(c1)OC[C@H](C)N(Cc1nccs1)C[C@@H](C)[C@@H](OC)CN(C)C2=O	-3	-6
25	CC(C)NC(=O)N(C)C[C@@H]1Oc2c(NC(=O)CCCCCC(=O)Nc3ccccc3N)cccc2C(=O)N([C@@H](C)CO)C[C@@H]1C	-3	-9
26	CN(C)CC(=O)N[C@H]1CC[C@H](CCNS(=O)(=O)c2ccccc2)O[C@H]1CO	-2	1
27	O=C(C1CCCCC1)N1C[C@@H]2N[C@H](C1)C2c1ccc(-c2ccccc2F)cc1 (stereo partly specified)	?	1
28	CCCNC(=O)N1[C@H](C#N)[C@H](c2ccccc2-c2cccc(OC)c2)[C@@H]1CO	-3	-8
29	Cc1ccccc1S(=O)(=O)N1C[C@@H]2[C@H](c3ccccc31)[C@H](CO)N2C(=O)CC1CC1	6	23
30	CC=Cc1ccc2n(c1=O)C[C@H]1[C@H](CO)[C@@H](C(=O)Nc3ccc(-c4ccccc4)cc3)N(CCC)[C@@H]21 (mixture of isomers)	-34	-18
31	CC(C)NC(=O)N(C)C[C@@H]1OCCCC[C@H](C)Oc2ccc(NS(C)(=O)=O)cc2C(=O)N([C@@H](C)CO)C[C@@H]1C	21	11
32	COCC(=O)N[C@H]1CC[C@@H](CC(=O)N2CCCCC2)O[C@@H]1CO	6	-1
33	CO[C@H]1CN(C)C(=O)c2ccc(NS(=O)(=O)c3cn(C)cn3)cc2OC[C@@H](C)N(C)C[C@H]1C	27	6
34	COc1ccccc1C#Cc1cnc2c(c1)C(=O)N([C@H](C)CO)C[C@H](C)[C@H](CN(C)C(=O)CN(C)C)O2	-4	-3
35	CCCNC(=O)N1C[C@H](O)COC[C@@H]2O[C@@H](CC(=O)NCc3ccc(Cl)c(Cl)c3)CC[C@H]21	2	8
36	C[C@H]1CN([C@@H](C)CO)C(=O)c2ccccc2-c2ccccc2CO[C@H]1CN(C)C(=O)Nc1ccc2c(c1)OCO2	8	4
37	Cc1noc(C)c1S(=O)(=O)Nc1ccc2c(c1)C(=O)N([C@H](C)CO)C[C@@H](C)[C@@H](CN(C)C(=O)NC(C)C)O2	8	5
38	CCS(=O)(=O)N1CC2(CN(C(=O)Nc3c(C)noc3C)[C@H](CO)c3[nH]c4cc(OC)ccc4c32)C1	18	18
39	COCC(=O)N1CC2(C1)CN(Cc1cc(F)ccc1F)[C@@H](CO)c1c2c2ccc(OC)cc2n1C	15	3
40	O=C(NCC[C@@H]1CC[C@H](NS(=O)(=O)Cc2ccccc2)[C@@H](CO)O1)C1CC1	8	7
41	C[C@H](CO)N1C[C@H](C)[C@@H](CN(C)C(=O)Nc2ccc3c(c2)OCO3)Oc2ccc(NC(=O)C3CC3)cc2C1=O	22	30
42	CC(C)NC(=O)Nc1cccc2c1O[C@H](CN(C)C(=O)Nc1ccccc1)[C@H](C)CN([C@H](C)CO)C2=O	-4	-10
43	Cc1noc(C)c1NC(=O)N[C@@H]1C=C[C@@H](CC(=O)N2CCN(C)CC2)O[C@H]1CO	4	9
44	C[C@H]1CN([C@@H](C)CO)C(=O)c2cc(-c3cccc(F)c3)cnc2O[C@H]1CN(C)C(=O)Nc1cc(F)ccc1F	5	-3
45	COc1ccc2c3c(n(C)c2c1)[C@@H](CO)N(CC1CC1)CC31CCN(S(=O)(=O)c2cn(C)cn2)CC1	20	16
46	COc1ccccc1NC(=O)N(C)C[C@@H]1OCc2cnnn2CCCC(=O)N([C@H](C)CO)C[C@@H]1C	2	19
47	C[C@H]1CN([C@@H](C)CO)C(=O)Cc2cc(NS(=O)(=O)c3ccc(Cl)cc3)ccc2O[C@@H]1CN(C)CC1CC1	5	-2
48	O=C([C@@H]1N[C@@H]2c3ccc(C4=CCCCC4)c(=O)n3C[C@@H]2[C@H]1CO)N1CCC(Cc2ccccc2)CC1	?	nt

Part of the list above in order of length of the SMILES, highest first:
nr	smiles	Vaccinia stage	Vaccinia stage Venus
48	O=C([C@@H]1N[C@@H]2c3ccc(C4=CCCCC4)c(=O)n3C[C@@H]2[C@H]1CO)N1CCC(Cc2ccccc2)CC1	?	nt
42	CC(C)NC(=O)Nc1cccc2c1O[C@H](CN(C)C(=O)Nc1ccccc1)[C@H](C)CN([C@H](C)CO)C2=O	-4	-10
46	COc1ccccc1NC(=O)N(C)C[C@@H]1OCc2cnnn2CCCC(=O)N([C@H](C)CO)C[C@@H]1C	2	19

(next part)
nr	smiles	Vaccinia stage	Vaccinia stage Venus
49	CN1c2ccc(Br)cc2[C@@H]2[C@@H](CCN2C(=O)C2CCC2)[C@@H]1CO	11	13
50	COc1ccc(S(=O)(=O)N(C)C[C@H]2Oc3ccc(NS(=O)(=O)c4ccc(Cl)cc4)cc3C(=O)N([C@H](C)CO)C[C@H]2C)cc1	2	-4
51	COc1ccc(S(=O)(=O)N(C)C[C@@H]2Oc3ccc(NC(=O)Cc4cn(C)c5ccccc45)cc3CC(=O)N([C@H](C)CO)C[C@H]2C)cc1	6	7
52	COc1ccc(NC(=O)N(C)C[C@H]2Oc3ccc(NC(=O)Nc4ccccc4)cc3CC(=O)N([C@H](C)CO)C[C@@H]2C)cc1	8	12
53	C[C@@H]1CN([C@@H](C)CO)S(=O)(=O)c2ccc(-c3ccccc3)cc2O[C@@H]1CN(C)C(=O)CN(C)C	-1	-6
54	CC(C)C#Cc1cnc2c(c1)C(=O)N([C@H](C)CO)C[C@H](C)[C@@H](CN(C)C(=O)c1ccc3c(c1)OCO3)O2	9	2
55	CCCC#Cc1cnc2c(c1)C(=O)N([C@H](C)CO)C[C@H](C)[C@H](CN(C)C(=O)c1ccccc1)O2	-8	-1
56	CC(=O)N(C)C[C@@H]1Oc2cc(C#CC3CCCC3)ccc2S(=O)(=O)N([C@@H](C)CO)C[C@H]1C	-30	-21
57	COc1ccc(CN(C)C[C@@H]2OCCCC[C@@H](C)Oc3ccc(NS(=O)(=O)c4cccs4)cc3C(=O)N([C@H](C)CO)C[C@@H]2C)cc1	10	2
58	CNC(=O)C[C@@H]1CC[C@@H]2[C@@H](COc3ccc(NC(=O)NC4CCCC4)cc3C(=O)N2C)O1	13	1
59	COCC(=O)N1[C@@H](C#N)[C@@H](c2ccc(C3=CCCCC3)cc2)[C@@H]1CO	-11	-7
60	O=C(C[C@@H]1CC[C@H]2[C@@H](COC[C@H](O)CN2S(=O)(=O)c2cccc(Cl)c2)O1)NCCCN1CCOCC1	17	9
61	COc1ccc(S(=O)(=O)NC2CCN(Cc3ccc(OCCO)cc3)CC2)cc1	0	5
62	C[C@H]1CN([C@@H](C)CO)C(=O)Cc2cc(NS(=O)(=O)c3cn(C)cn3)ccc2O[C@@H]1CN(C)CC1CC1	0	-1
63	COCC(=O)Nc1ccc2c(c1)OC[C@H](C)N(C(=O)NC(C)C)C[C@@H](C)[C@@H](OC)CN(C)C2=O	11	2
64	O=C(CN1CCOCC1)N[C@@H]1CC[C@H](CCNC(=O)Nc2cc(F)ccc2F)O[C@H]1CO	-8	4
65	C[C@H](CO)N1C[C@H](C)[C@@H](CN(C)C)Oc2ncc(-c3ccccc3F)cc2C1=O	-8	-5
66	COc1ccc(NC(=O)Nc2ccc3c(c2)[C@@H]2C[C@H](CC(=O)N4CCc5ccccc5C4)O[C@@H](CO)[C@@H]2O3)cc1	16	9
67	CN(C)CC#Cc1ccc([C@H]2[C@@H](CO)N3C(=O)CN(C(=O)c4ccccc4)C[C@@H]23)cc1	6	3
68	CN1C(=O)c2cc(NC(=O)c3ccccc3)ccc2OC[C@@H]2O[C@@H](CC(=O)NCC3CC3)CC[C@@H]21	10	18
69	COc1ccc(NC(=O)N(C)C[C@H]2Oc3c(NS(=O)(=O)c4ccc(C)cc4)cccc3C(=O)N([C@H](C)CO)C[C@H]2C)cc1	12	14
70	C[C@@H]1CCCCO[C@@H](CN(C)C(=O)Cc2ccccc2)[C@@H](C)CN([C@H](C)CO)C(=O)c2cc(NC(=O)Nc3ccc4c(c3)OCO4)ccc2O1	29	10
71	COc1ccc(COCC23N=C4SCCCN4[C@H](c4ccccc4O2)[C@H]3CO)cc1	-8	-3
72	COc1ccc2c3c(n(C)c2c1)[C@H](CO)N(Cc1ccccc1F)CC31CCN(C(=O)C2CCOCC2)CC1	-5	-5

Excerpt, compounds 23–24
nr	smiles	Vaccinia stage	Vaccinia stage Venus
23	CC(C)NC(=O)N1CCCCN2[C@H](CO)[C@@H](c3ccc(C#Cc4ccccc4F)cc3)[C@H]2C1	?	nt
24	CCCC(=O)Nc1ccc2c(c1)OC[C@H](C)N(Cc1nccs1)C[C@@H](C)[C@@H](OC)CN(C)C2=O	-3	-6

Next compounds follow.
nr	smiles	Vaccinia stage	Vaccinia stage Venus
73	CC(C)NC(=O)Nc1ccc2c(c1)CC(=O)N([C@H](C)CO)C[C@@H](C)[C@@H](CN(C)Cc1ccncc1)O2	24	11
74	COc1ccc2c3c([nH]c2c1)[C@@H](CO)N(C(=O)NC(C)C)CC31CN(C(=O)C2CCCC2)C1	8	1
75	COCCNC(=O)c1cc2c(c(-c3cccc(C4=CCCC4)c3)n1)[C@@H](CCO)N([S@](=O)C(C)(C)C)C2	14	25
76	CO[C@H]1CN(C)C(=O)c2ccc(NC(=O)c3nc4ccccc4s3)cc2OC[C@H](C)N(Cc2ccncc2)C[C@@H]1C	?	nt
77	COc1ccccc1NC(=O)N1C[C@@H]2[C@H](c3ccccc31)[C@@H](CO)N2CC1CCCC1	3	3
78	Cc1noc(C)c1S(=O)(=O)N(C)C[C@H]1Oc2ccc(NC(=O)Cc3cn(C)c4ccccc34)cc2CC(=O)N([C@@H](C)CO)C[C@H]1C	13	9
79	COc1ccccc1-c1ccc([C@@H]2[C@H]3CN(C(=O)c4ccncc4)CCCCN3[C@H]2CO)cc1	-2	-4
80	COc1ccccc1S(=O)(=O)N[C@@H]1C=C[C@@H](CC(=O)N2CCN(C)CC2)O[C@@H]1CO	6	4
81	C[C@H]1CN([C@@H](C)CO)S(=O)(=O)c2ccc(C#Cc3cccnc3)cc2O[C@@H]1CN(C)C(=O)C1CC1	-4	2
82	Cc1ccccc1-c1cnc2c(c1)C(=O)N([C@@H](C)CO)C[C@@H](C)[C@H](CN(C)Cc1cncnc1)O2	-6	-2

Compound activity deposited in PubChem BioAssay by Broad Institute.
